# Screens from PubChem BioAssay.
# FGF22 binding – binders of recombinant human FGF22 by thermal shift. AID 651658. calls only at 9.99 µM. Q9HCT0. SYPRO orange fluorescence; percent of sucrose octasulfate shift, DMSO zero. hit rate 1.5% among 340,000;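 active means melting point raised past a set limit in the mean and every replicate; inconclusive means no clear call; three in four hits are not shown here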
# Vif A3G – inhibitors of Vif binding to APOBEC3G peptide, primary screen, biochemical, TR-FRET, GST-Vif 1-94, biotin-A3G peptide, dose response retest (AID 1117319). TR-FRET GST-Vif / biotin-A3G peptide binding; higher % means a stronger effect; test concentration not given here; strong numbers were not always called active. hit rate 0.57% among 260,000. inhibition, %; hits with a dose series show IC50 in µM;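 active means above the screen mean plus three standard deviations and confirmed in dose response; inconclusive means results disagree or hit not tested in dose response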;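 further: Vif residues 1-94 fused to GST binding biotinylated APOBEC3G peptide 110-148; 0% = full assay without inhibitor and 100% = GST in place of GST-Vif; retest series ran down from 100 µM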
# HNF4A DNA FP – change in binding of human HNF4 alpha to DNA; P41235; hit rate 0.3% among 360,000; HNF4a-FITC DNA binding, fluorescence polarization, 1 h; activity change, % at 10 µM; in the data active means activity change above about 30%, passing the limit was not always enough;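 further: controls were the assay level and a saturating level of protein; the project sought stronger binding though the title names inhibitors; some compounds called inactive have numbers as strong as hits; positive values seem to mean higher polarization but the record does not say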
# Target sequence (P41235 whole entry, looked up): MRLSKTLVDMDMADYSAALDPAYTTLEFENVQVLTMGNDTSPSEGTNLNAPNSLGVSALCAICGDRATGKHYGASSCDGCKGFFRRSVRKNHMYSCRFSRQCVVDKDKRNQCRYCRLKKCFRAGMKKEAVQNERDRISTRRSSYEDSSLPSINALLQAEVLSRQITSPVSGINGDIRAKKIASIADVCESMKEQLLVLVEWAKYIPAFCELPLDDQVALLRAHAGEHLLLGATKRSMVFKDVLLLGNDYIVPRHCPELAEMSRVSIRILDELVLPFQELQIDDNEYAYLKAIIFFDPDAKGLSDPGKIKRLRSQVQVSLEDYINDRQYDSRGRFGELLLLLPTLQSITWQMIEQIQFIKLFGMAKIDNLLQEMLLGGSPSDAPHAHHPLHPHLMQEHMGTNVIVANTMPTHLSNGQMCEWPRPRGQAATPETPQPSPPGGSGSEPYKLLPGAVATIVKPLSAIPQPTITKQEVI
# rRNA inh HTS – inhibitors of bacterial rRNA selective over humanized ribosomes | E. coli WT GFP vs humanized-ribosome RFP mutants, fluorescence, 24 h; active compounds read low; DMSO median 0, no signal -100 | hit rate 1.6% among 350,000 | AID 720706 | GFP signal change (wild-type ribosome), % (no concentration beside the values);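 active means significant combined selectivity score with lowered wild-type GFP, culture density cut under 30%, mutant RFP and density less affected; inactive means any of these conditions unmet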; further: one replicate is shown; some compounds called inactive have numbers as strong as hits
# ALR H2O2 inh – blocks human ALR sulfhydryl oxidase activity | P55789 | inhibition, % (concentration not given with the values) | AID 485317 | hit rate 3.8% among 290,000 | purified ALR, DTT oxidation, H2O2 HRP-luminol luminescence;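 active means mean and each replicate at 75% or more; inconclusive means only one of the two met; inactive means neither met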;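 further: stock transfer was 7.5 nL into about 7.5 µL; 0% = neutral wells and 100% = wells with inactivated enzyme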
# E coli growth – inhibitors of Escherichia coli growth; OD600 absorbance (no concentration beside the values); AID 1053175; hit rate 0.21% among 330,000; OD600, 23 h; active compounds read low;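 active means OD600 absorbance below the run mean of sample wells minus 3.6 SD, in any replicate, cut at about 0.56 in these data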;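 further: stock transfer was 300 nL into about 60 µL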
# AF4-AF9 inh – inhibitors of human MLL-AF4/AF9 interaction | hit rate 0.47% among 350,000 | inhibition, % at 10 µM | P42568 | AlphaScreen, biotin-AF4 peptide binding to FLAG-AF9 | AID 651704;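 active means every replicate reaching a set inhibition limit, whatever the replicate mean, cut at about 25% in these data; inconclusive means mean inhibition reaches that limit but some replicates miss it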;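 further: 0% = plate neutral control median and 100% = total signal loss; the record names both 10 and 1 µM as test concentration; the first replicate is given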
# Target sequence (P42568 whole entry, looked up): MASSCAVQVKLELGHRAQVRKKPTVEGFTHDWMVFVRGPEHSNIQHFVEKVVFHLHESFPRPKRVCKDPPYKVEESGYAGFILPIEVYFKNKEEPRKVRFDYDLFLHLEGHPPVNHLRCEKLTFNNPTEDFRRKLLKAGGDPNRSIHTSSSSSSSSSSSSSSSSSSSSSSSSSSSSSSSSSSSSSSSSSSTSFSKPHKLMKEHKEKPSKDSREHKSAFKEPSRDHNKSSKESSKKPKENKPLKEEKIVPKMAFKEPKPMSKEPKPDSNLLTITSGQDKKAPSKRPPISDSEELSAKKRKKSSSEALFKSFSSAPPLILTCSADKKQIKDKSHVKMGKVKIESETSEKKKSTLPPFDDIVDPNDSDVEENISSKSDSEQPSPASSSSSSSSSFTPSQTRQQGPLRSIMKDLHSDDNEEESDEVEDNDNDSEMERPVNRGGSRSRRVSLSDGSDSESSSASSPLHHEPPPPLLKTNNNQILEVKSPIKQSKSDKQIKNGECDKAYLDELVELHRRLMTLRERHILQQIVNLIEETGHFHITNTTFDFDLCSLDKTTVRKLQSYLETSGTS
# rRNA inh HTS OD600 – recorded beside rRNA inh HTS, whose call it bears; OD600 change, %; measured here: OD600 growth;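 optical density of the mix in the first replicate; 0 = DMSO median and -100 = no signal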
# rRNA inh HTS RFP – second read-out of rRNA inh HTS, no call of its own (marks repeat the call); RFP signal change, %; measured here: RFP humanized mutant strains;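 first replicate; 0 = DMSO median and -100 = no signal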
# Starred values were filed as active, the others as inactive; i = inactive; ? = inconclusive; · = no result given. Not all compounds are listed. The share of hits here may be higher or lower than overall.
ALR H2O2 inh	rRNA inh HTS RFP	E coli growth	rRNA inh HTS	Vif A3G	FGF22 binding	rRNA inh HTS OD600	AF4-AF9 inh	HNF4A DNA FP	molecule
·	-3.5	·	7	·	i	13	-3.1	·	CN(C)CC(=O)N[C@H]1CC[C@@H](CCn2cc(C3CCCC3)nn2)O[C@@H]1CO
·	-10	0.68	-42	-4%	i	-65	11	0.3	OCCN1CCN(c2ncnc3c2c(-c2ccccc2)cn3-c2ccc(F)cc2)CC1
3	0.4	0.68	23	-1%	i	11	-2.3	1.3	CC(NCc1cccs1)c1ccccc1 (centres undefined)
-1	0.6	0.66	9	-1%	i	11	-0.3	0.4	O=C(COc1ccccc1[N+](=O)[O-])Nc1cc(C(=O)O)cc(C(=O)O)c1
5	1.6	0.64	-1	·	i	2	2.4	15	Cc1ccc(N(Cc2ccccc2)C(=O)c2cc(S(=O)(=O)N3CCOCC3)ccc2F)cc1
·	·	0.73	·	1%	·	·	·	1.2	CCC(=O)N1CCc2cc(S(=O)(=O)NC(Cc3ccccc3)C(=O)Nc3nccs3)ccc21 (centres undefined)
69	-0.7	0.67	1	·	i	0	0.8	-0.3	Oc1ccccc1OCC(O)c1ccccc1 (centres undefined)
99*	-12	0.72	-28	9%	i	-40	30*	-3.2	Cc1ccc2c(c1)c1c(n2CC(O)CNC2CCCCC2)CCCC1 (centres undefined)
1	5.6	0.71	1	3%	i	-17	3.4	0.3	COc1ccc(CCC(=O)OCC(=O)N2CCN(S(=O)(=O)c3ccc(C)cc3C)CC2)cc1
-2	1.7	0.68	12	?	i	10	-1.4	0.2	O=S(=O)(c1ccc2ncn(O)c2c1)N1CCOCC1
·	-0.3	0.71	10	-1%	i	15	-1.4	0.8	O=C(NCCc1ccc(Cl)cc1)c1nnc(Cc2ccc(Cl)cc2)o1
-5	·	0.66	·	5%	·	·	·	-3.9	CC(C)CNC(=O)c1cc2nc3c(c(C(F)(F)F)n2n1)CCc1ccccc1-3

# Record cards, from the list above. Screens in order: ALR H2O2 inh, rRNA inh HTS RFP, E coli growth, rRNA inh HTS, Vif A3G, FGF22 binding, rRNA inh HTS OD600, AF4-AF9 inh, HNF4A DNA FP
# OCCN1CCN(c2ncnc3c2c(-c2ccccc2)cn3-c2ccc(F)cc2)CC1 is listed as ·, -10, 0.68, -42, -4%, i, -65, 11, 0.3
# O=S(=O)(c1ccc2ncn(O)c2c1)N1CCOCC1 is listed as -2, 1.7, 0.68, 12, ?, i, 10, -1.4, 0.2

# The list continues.
ALR H2O2 inh	rRNA inh HTS RFP	E coli growth	rRNA inh HTS	Vif A3G	FGF22 binding	rRNA inh HTS OD600	AF4-AF9 inh	HNF4A DNA FP	molecule
·	7.3*	0.65	-21*	-11%	i	-6.4*	-3.6	-5.7	O=C(NN=Cc1ccc2c(c1)OCO2)NN=Cc1ccc2c(c1)OCO2
-13	·	0.68	·	8%	·	·	·	-1.4	Cc1ccc(-n2c(SCC(N)=O)nnc2-c2ccc(S(=O)(=O)N3CCCCC3)cc2)c(C)c1
1	-1.1	0.67	8	5%	i	1	0.8	0.7	CC(C)C(=O)Nc1nnc(SCC(=O)N2C(C)CCCC2C)s1 (centres undefined)
·	0.4	0.7	4	·	·	3	-1.2	1.5	O=C(COc1nsnc1N1CCOCC1)Nc1ccc(Cl)cc1
-4	-7.9	0.72	12	-1%	i	6	-2.5	6.9	COc1ccc(CN(C)C2CCCCC2)cc1
-10	5.3	·	-10	·	i	-8	3.2	-3.0	COc1ccc2sc(-c3ccc(SC)cc3)c(C#CC(C)(C)O)c2c1
-1	-1.4	0.67	0	-6%	i	0	-2.0	-1.4	Cc1c(C(=O)N2CCOCC2)oc2ccccc12
7	-1.2	0.72	-17	30%	i	-26	0.6	-1.4	O=C(C1CCN(c2nnc(-n3cccc3)s2)CC1)N1CCc2ccccc2C1
1	0.0	0.71	9	-11%	i	10	3.3	0.0	CCCCN(C(=O)c1ccc(COc2ccccc2)o1)c1c(N)n(CC(C)C)c(=O)[nH]c1=O
·	1.0	0.68	9	-4%	i	8	1.8	-2.1	COc1cc(C2C(C#N)=C(N)OC3=C2C(=O)CCC3)cc2c1OCO2 (centres undefined)
-2	-5.4	0.68	12	·	i	0	-0.3	-1.3	CC(C)CCNC(=O)c1ccc(OC2CCN(S(=O)(=O)N(C)C)CC2)cc1
·	0.3	·	2	·	i	0	-2.9	·	CO[C@@H]1CN(C)C(=O)c2ccc(NS(C)(=O)=O)cc2OC[C@H](C)N(C(=O)C2CCC2)C[C@H]1C

# Following part:
ALR H2O2 inh	rRNA inh HTS RFP	E coli growth	rRNA inh HTS	Vif A3G	FGF22 binding	rRNA inh HTS OD600	AF4-AF9 inh	HNF4A DNA FP	molecule
·	-0.8	0.74	-8	-16%	i	-12	-5.0	-1.8	CC1CCCCC1NC(=O)CSc1ccsc1[N+](=O)[O-] (centres undefined)
-4	·	0.66	·	26%	·	·	·	2.1	N=c1n(Cc2ccccc2)c2ccccc2n1CC(O)c1ccccc1 (centres undefined)
·	1.4	·	5	·	i	6	-1.5	·	CNC[C@H]1Oc2cc(C#CCOC)ccc2S(=O)(=O)N([C@H](C)CO)C[C@@H]1C
·	-1.2	·	2	8%	i	7	-8.5	0.8	COCCn1c(CN2CCN(C)CC2)nc2c1c(=O)n(C)c(=O)n2C
-7	·	0.74	·	-32%	·	·	·	-1.1	CNC(=S)N1N=C(c2ccc(Br)cc2)CC1c1ccc(OC)cc1 (centres undefined)
·	17	·	0	·	i	11	-1.3	-0.3	CC(=O)/C=C1\OCc2cc(OCc3ccccc3)ccc21
·	2.7	·	-11	·	i	-9	0.7	·	C[C@H]1CN([C@@H](C)CO)C(=O)c2c(c3ccccc3n2C)-c2ccccc2CO[C@H]1CN(C)C(=O)Cc1ccccc1
-20	·	0.73	·	-9%	·	·	·	-2.2	COC(=O)c1sccc1NC(=O)c1ccc(Br)o1
·	3.0	·	6	·	i	8	-2.2	·	CN(C)CC(=O)N1[C@H](C#N)[C@H](c2ccccc2-c2ccccc2F)[C@H]1CO
-9	-2.1	0.62	-19	·	i	-14	-0.4	1.4	OCCNCc1ccc(OCc2ccc(Cl)cc2Cl)cc1
·	-2.1	·	-5	·	i	-1	-0.1	·	O=C(NCC[C@H]1CC[C@H](NC(=O)C2CCOCC2)[C@@H](CO)O1)c1cc(Cl)cc(Cl)c1
·	-0.6	·	-2	·	i	-6	?	·	C[C@@H]1CCCCO[C@H](CN(C)C(=O)Nc2ccccc2)[C@@H](C)CN([C@H](C)CO)C(=O)c2cc(NC(=O)c3ccccc3)ccc2O1

# New compounds follow:
ALR H2O2 inh	rRNA inh HTS RFP	E coli growth	rRNA inh HTS	Vif A3G	FGF22 binding	rRNA inh HTS OD600	AF4-AF9 inh	HNF4A DNA FP	molecule
·	-0.1	·	3	·	i	2	0.2	·	CO[C@H]1CN(C)C(=O)c2ccc(NS(=O)(=O)CC(F)(F)F)cc2OC[C@H](C)N(CC2CCCCC2)C[C@H]1C
·	·	·	·	-3%	·	·	-0.7	-3.5	NC(=O)c1ccc(NC(=O)COC(=O)CCC2CCCC2)cc1
-5	·	0.69	·	5%	·	·	·	-1.1	N#Cc1cc(-c2ccccc2)cnc1Cl
5	-0.7	0.65	5	·	i	2	·	0.2	Cc1ccccc1C=O
23	1.2	0.69	11	-6%	i	2	-1.4	4.0	COC(=O)c1cc(-c2cccc([N+](=O)[O-])c2)c2c(=O)n(C)c(=O)n(C)c2n1
-8	-3.6	0.67	1	4%	i	5	2.2	-0.2	Cc1nc2ccccc2n1CC(=O)NC1CCCCCC1
1	-0.1	0.7	7	7%	i	15	0.7	2.2	CC(C)(C)NC(=O)NCC1CCCC1NC(=O)NC(C)(C)C (centres undefined)
·	-0.8	0.63	9	6%	i	-1	-1.7	2.1	Cc1cccc(NC(=O)CSc2nncn2-c2ccccn2)c1
·	3.0	0.69	8	-5%	i	3	-0.7	0.0	S=c1cn[nH]c2ccccc12
-8	·	0.7	·	7%	·	·	·	3.7	O=C(Nc1ccc(N2CCCCC2)cc1)c1cncc(Br)c1
-3	·	0.71	·	-5%	·	·	·	-1.1	O=C(Cn1cnc2ccccc2c1=O)NCCC(=O)Nc1ccc2c(c1)OCCO2
-3	·	0.64	·	·	·	·	-0.1	2.3	Cc1cc(C)cc(N(C(=O)c2csnn2)C(C(=O)NC(C)(C)C)c2ccncc2)c1 (centres undefined)

# Fetched by structure from the list above, four records:
ALR H2O2 inh	rRNA inh HTS RFP	E coli growth	rRNA inh HTS	Vif A3G	FGF22 binding	rRNA inh HTS OD600	AF4-AF9 inh	HNF4A DNA FP	molecule
5	-0.7	0.65	5	·	i	2	·	0.2	Cc1ccccc1C=O
-8	-3.6	0.67	1	4%	i	5	2.2	-0.2	Cc1nc2ccccc2n1CC(=O)NC1CCCCCC1
-5	·	0.69	·	5%	·	·	·	-1.1	N#Cc1cc(-c2ccccc2)cnc1Cl
-8	·	0.7	·	7%	·	·	·	3.7	O=C(Nc1ccc(N2CCCCC2)cc1)c1cncc(Br)c1

# Other records
ALR H2O2 inh	rRNA inh HTS RFP	E coli growth	rRNA inh HTS	Vif A3G	FGF22 binding	rRNA inh HTS OD600	AF4-AF9 inh	HNF4A DNA FP	molecule
6	5.6	0.74	6	·	i	-2	4.3	0.8	CCOC(=O)c1c(-c2ccc(C)o2)csc1NC(=S)NC(=O)c1cccs1
-4	-2.8	0.72	-5	0%	i	-12	-7.2	-2.5	CSC1=NCCN1S(=O)(=O)c1ccc2ccccc2c1
4	·	·	·	4%	·	·	·	-0.4	COc1ccccc1N1CCN(CC(=O)c2ccc3ccn(C(C)=O)c3c2)CC1
·	0.2	0.68	-8	7%	i	-7	1.9	1.9	CCOc1ccccc1NC(=O)COc1coc(CN2CCCc3ccccc32)cc1=O
·	-0.4	·	5	·	i	7	9.2	·	CCCN(C)C[C@H]1OCCCC[C@@H](C)Oc2ccc(NC(=O)C3CCCCC3)cc2C(=O)N([C@H](C)CO)C[C@H]1C
-11	0.7	0.64	6	2%	i	4	0.0	-0.6	N#Cc1ccc(NC(=O)c2cccs2)nc1
·	1.3	·	-1	·	i	1	2.5	·	CO[C@H]1CN(C)C(=O)c2cccc(C#N)c2OCC[C@@H]2CC[C@@H](OC)[C@H](CN(C)C(=O)[C@H]1C)O2
·	·	0.72	·	26%	·	·	·	5.0	COc1ccccc1C(=O)NC1CCCCCCC1
·	·	0.72	·	23%	·	·	·	0.6	Cc1noc(C)c1COC(=O)COc1ccc2c(C)cc(=O)oc2c1
-1	-1.1	0.67	3	2%	i	6	7.9	-5.6	CCCOc1ccccc1C1NC(=O)NC(C)=C1C(=O)OCCOC(C)C (centres undefined)
-4	2.3	0.67	23	-6%	i	13	-1.9	0.7	CCN1CCN(c2nc(N(C)c3ccccc3)nc(N)c2[N+](=O)[O-])CC1
-4	1.9	·	-4	·	i	-6	-4.0	0.8	CC1(C)S[C@@H]2C(C(=O)OCc3ccccc3)NC(=O)N2C1C(=O)OCc1ccccc1 (some centres undefined)

# (list continues)
ALR H2O2 inh	rRNA inh HTS RFP	E coli growth	rRNA inh HTS	Vif A3G	FGF22 binding	rRNA inh HTS OD600	AF4-AF9 inh	HNF4A DNA FP	molecule
-11	·	0.63	·	7%	·	·	·	-0.9	CNC(=O)COC(=O)c1ccccc1Oc1ccccc1
·	·	0.72	·	-1%	·	·	·	-2.2	CN1C(=O)C2(NCCc3c2[nH]c2ccccc32)c2ccccc21 (centres undefined)
6	·	0.71	·	7%	·	·	·	1.5	CC(C)Nc1cc(C(F)(F)F)nc(-c2ccccn2)n1
-5	0.3	0.69	3	·	i	4	0.3	1.2	N#CCCN1CCN(S(=O)(=O)c2cc(Cl)ccc2Cl)CC1
